# ALR inh: human ALR oxidase inhibition via reduced H2O2 | P55789 | purified ALR, DTT oxidation, H2O2 HRP-luminol luminescence | inhibition, % (no concentration beside the values) | hit rate 3.8% among 290,000;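 active = mean and each replicate at 75% or more; inconclusive = only one of the two met; inactive = neither met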;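 note: stock transfer was 7.5 nL into about 7.5 µL; 0% = neutral wells and 100% = wells with inactivated enzyme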
# LANA-H2A inh: blocks KSHV LANA binding to histone H2A/H2B. Q9QR71. cell-free LANA-H2A/H2B peptide, fluorescence polarization. inhibition, % (concentration not given with the values). hit rate 0.6% among 320,000; in the data active = inhibition mostly above about 10%, no sharp cut-off; inactive = mostly below about 6.7%;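 note: stock transfer was 7.5 nL into about 10 µL; 0% = median of vehicle wells and 100% = median of positive control wells; one replicate is shown; the record names a cut of 25% in any replicate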
# HNF4A DNA FP: change in binding of human HNF4 alpha to DNA. P41235. hit rate 0.3% among 360,000. activity change, % at 10 µM. HNF4a-FITC DNA binding, fluorescence polarization, 1 h; in the data active = activity change above about 30%, passing the limit was not always enough;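 note: controls were the assay level and a saturating level of protein; the project sought stronger binding though the title names inhibitors; some compounds called inactive have numbers as strong as hits; positive values seem to mean higher polarization but the record does not say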
# Target sequence (P41235 whole entry, looked up): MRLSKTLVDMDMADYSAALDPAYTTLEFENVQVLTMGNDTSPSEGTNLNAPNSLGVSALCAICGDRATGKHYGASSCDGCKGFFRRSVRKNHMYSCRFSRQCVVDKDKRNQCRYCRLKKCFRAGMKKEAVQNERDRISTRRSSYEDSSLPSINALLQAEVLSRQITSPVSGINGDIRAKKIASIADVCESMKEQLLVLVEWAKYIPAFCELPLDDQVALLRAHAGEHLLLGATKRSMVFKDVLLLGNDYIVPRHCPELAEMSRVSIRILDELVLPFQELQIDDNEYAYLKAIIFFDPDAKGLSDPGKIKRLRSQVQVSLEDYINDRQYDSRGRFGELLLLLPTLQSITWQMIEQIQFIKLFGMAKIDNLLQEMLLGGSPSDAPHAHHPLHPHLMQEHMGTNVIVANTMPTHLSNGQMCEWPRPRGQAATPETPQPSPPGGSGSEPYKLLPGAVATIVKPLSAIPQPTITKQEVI
# B2AR ag: activates human beta-2 adrenergic receptor causing internalization; P07550; Am2.2-beta2AR cells, FAP receptor internalization, flow cytometry; reference of the scale not given here; response, % (concentration not given with the values); AID 504454; hit rate 0.43% among 340,000;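 active = response above a set limit, near 3 SD of response in nonfluorescent compounds, cut at about 42% in these data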;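 note: stock transfer was 100 nL into about 11 µL; a reference agonist was the positive control; negative values mostly stem from fluorescent compounds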
# Target sequence (P07550 whole entry, looked up): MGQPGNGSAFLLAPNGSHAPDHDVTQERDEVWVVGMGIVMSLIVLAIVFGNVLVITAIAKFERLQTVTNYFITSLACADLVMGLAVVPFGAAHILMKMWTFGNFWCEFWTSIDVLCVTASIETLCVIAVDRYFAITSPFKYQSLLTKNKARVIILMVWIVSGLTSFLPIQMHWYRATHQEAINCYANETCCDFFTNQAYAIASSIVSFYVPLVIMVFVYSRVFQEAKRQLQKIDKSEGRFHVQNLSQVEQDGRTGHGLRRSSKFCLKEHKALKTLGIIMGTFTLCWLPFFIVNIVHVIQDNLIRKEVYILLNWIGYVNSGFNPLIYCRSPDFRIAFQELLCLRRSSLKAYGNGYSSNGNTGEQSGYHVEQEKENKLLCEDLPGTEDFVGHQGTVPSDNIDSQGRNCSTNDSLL
# RanGTP-Impb inh: disruptors of Ran-importin-beta complex formation – biochemical, FRET, CFP-Ran, YFP-importin-beta, homogeneous, primary screen; cell-free CFP-Ran/YFP-importin-beta FRET ratio; inhibition, % (concentration not given with the values); hit rate 1.1% among 300,000; AID 2216;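 active = most replicates above 15%; inconclusive = exactly half above 15%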;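 note: 0% = DMSO wells and 100% = Ran loaded with GDP instead of GTP; wells of about 40 µL received 100 nL stock; the first replicate is given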
# Vif TR-FRET: inhibitors of Vif binding to APOBEC3G peptide, primary screen, biochemical, TR-FRET, GST-Vif 1-94, biotin-A3G peptide, dose response retest (AID 1117319); TR-FRET GST-Vif / biotin-A3G peptide binding; higher % means a stronger effect; test concentration not given here; strong numbers were not always called active; inhibition, %, or IC50 in µM where a hit was titrated; hit rate 0.57% among 260,000;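 active = above the screen mean plus three standard deviations and confirmed in dose response; inconclusive = results disagree or hit not tested in dose response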;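 note: Vif residues 1-94 fused to GST binding biotinylated APOBEC3G peptide 110-148; 0% = full assay without inhibitor and 100% = GST in place of GST-Vif; retest series ran down from 100 µM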
# Calb FLC: affects C. albicans growth with fluconazole; C. albicans CaCi-2 (fluconazole-resistant clinical isolate) + fluconazole, Alamar Blue growth, 48 h; growth inhibition, % (no concentration beside the values); hit rate 0.57% among 300,000;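 active = most replicates above 75%; inconclusive = exactly half above 75%; inactive = most below 75%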;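 note: all wells also contain fluconazole at 8 µg/ml as a sub-toxic cotreatment; 0% = median of DMSO wells and 100% = median of geldanamycin control wells; wells of about 8 µL received 7.5 nL stock; the first replicate is given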
# Starred values were filed as active, the others as inactive; u = inconclusive; x = no result given; & = joins results of further samples.
SMILES,ALR inh,LANA-H2A inh,HNF4A DNA FP,B2AR ag,RanGTP-Impb inh,Vif TR-FRET,Calb FLC
CC(C)c1nc(Cl)c(C#N)c2c1COC(C)(C)C2,-5,2.7,-3.7,1,2.5,0%,-5
Cc1cc(C)cc(NC(=O)CSc2nc(CSc3ccc(Cl)cc3)cc(=O)[nH]2)c1,-20,0.8,-3.9,7,0.4,x,-9
CC1(C)CNC(=O)CC(C)(C)N1O,-2,0.4,-4.2,4,1.8,1%,-6
COc1ccc(CC(=O)NNC(=O)CSc2nnc(Cc3ccc(OC)cc3)n2-c2ccccc2)cc1,u,-1.8,2.1,-3,0.9,x,-3
c1ccc(N2CCN(c3nc4ccccc4[nH]3)CC2)nc1,4,2.5,1.1,9,4.9,0%,-17
COc1ccc(NC(=O)CN(C)C(=O)c2cccc(S(=O)(=O)Nc3ccc(F)cc3)c2)cc1,x,0.8,2.5,-7,x,-10%,x
C/C(=N/NC(=O)CN1CCN(S(=O)(=O)c2ccc(Br)cc2)CC1)c1ccncc1,x,x,-2.8,-6,0.4,2%,2
O=C(CC1S/C(=N/N=C/C=C/c2ccccc2)NC1=O)Nc1ccc(C(=O)O)cc1 (stereo not given),-11,-3.1,-1.4,17,-1.0,7%,3
CC(=O)c1cccc(N(C(=O)CNC(=O)c2ccco2)C(C(=O)NC2CCCC2)c2ccco2)c1 (stereo not given),x,0.5,-3.1,0,-0.7,3%,2
CNC(=O)CN1C(=O)NC(c2ccccc2)(c2ccccc2)C1=O,x,-0.6,2.7,2,-0.8,x,-6
C=C(C)CSc1nc2c(c(=O)[nH]c(=O)n2C)n1Cc1ccccc1,-2,-2.1,-1.3,-5,-3.2,x,0
NS(=O)(=O)c1ccc(-c2ccc(/C=N/NC(=O)c3ccccc3O)o2)cc1,x,-2.0,1.0,3,3.9,12%,-4
CC1CN=C(NC2CCCCC2C)S1 (stereo not given),-1,4.8,1.2,4,-4.7,9%,-8
O=C(C1CCCN1S(=O)(=O)c1cccc2cccnc12)N1CCc2ccccc21 (stereo not given),-6,-5.0,0.7,0,1.9,-1%,12
Cc1ccccc1NC(=O)CSc1nc2ncc(Cl)cc2[nH]1,-2,1.5,3.0,-9,5.4,-14%,0
COc1ccc(C(=O)NC(=S)NNC(=O)COc2ccccc2)cc1,98*,0.3,-0.9,-11,5.4,u,17
COc1ccc(-c2noc(CN3CCC(Cc4ccccc4)CC3)n2)cc1,-2,-12,-1.9,-2,-5.7,-3%&2%,-12
O=S(=O)(NCCSc1ccccc1)c1ccc2c(c1)OCCO2,-5,-2.2,-0.5,-3,-0.4,-5%,-10
O=C(Oc1ccc(/C=N/NC(=O)c2ccccc2O)cc1)c1ccccc1,-17,0.5,-3.1,5,-0.9,4%,0
COCCN(C(=O)c1snc(C(N)=O)c1N)C(C(=O)NC1CCCCC1)c1ccc(OC)c(OC)c1 (stereo not given),0,4.1,1.1,-5,6.3,x,-2
CC(C)(C)NC(=O)CSc1nc2ccc(Nc3nc(N4CCOCC4)nc(N4CCOCC4)n3)cc2s1,99*,9.2,6.7,22,2.9,-4%,12
COc1ccccc1C(=O)C(O)c1ccccc1OC (stereo not given),-9,-9.2,1.9,-8,-1.5,1%,-14
O=C(Nc1ccccc1)/C(=C/c1ccccc1)c1ccccc1,-7,-4.5,1.7,6,-1.1,5%,32
COc1ccc(CNS(=O)(=O)c2ccc3c(c2)N(C(C)=O)CCO3)cc1,-4,-5.8,-0.9,4,-3.9,x,11
Cc1ccc(S(=O)(=O)NNC(=O)c2cccc(O)c2)cc1,45,0.6,-0.8,17,0.0,x,-2
COc1ccc(C(=O)NCCc2cc3ccc(C)c(C)c3[nH]c2=O)cc1OC,42,-4.2,-1.8,-5,u,u,-11
C/C(=C\C(=O)c1ccc(Cl)cc1Cl)N(C)C,-4,-6.0,2.2,5,1.4,1%,-2
O=C(O)CCc1ccc(-c2cccs2)n1NC(=O)c1ccco1,x,-3.5,3.0,-10,1.9,13%,-5
C=CCOc1ccc(CNc2nccs2)cc1OC,7,5.7,0.5,2,3.6,-3%,12
NC(=O)c1ccc(NC(=O)c2cncn2-c2ccccc2)cc1,-3,3.8,1.1,1,3.0,-7%,-2
Cc1[nH]c2c(Br)cccc2c1[C@H]1[C@@H](CC#N)C1(C)C,4,-3.7,-0.6,-2,1.1,1%,-4
CCOc1ccc(/C=C(/NC(=O)c2ccc(Cl)cc2)C(=O)O)cc1OCC,6,0.2,0.3,-5,1.5,11%,-8
c1ccc(-c2csc3ncnc(-n4cnc5ccccc54)c23)cc1,-2,-1.2,0.5,2,4.0,6%,3
CN(C)S(=O)(=O)c1ccc(NC(=O)N2CCN(c3ccccc3)CC2)cc1,1,5.5,-0.9,-5,-3.4,-9%,-8
CCCCc1cc(=O)oc2cc(OCC(=O)NCc3ccccn3)ccc12,1,-4.2,0.5,-4,2.5,x,14
CC(C)(C)C(=O)C[n+]1ccc(C(N)=O)cc1,18,-1.6,-1.2,2,5.8,-4%,0
COc1ccc(CC(=O)N2CCN(S(=O)(=O)c3cc(Cl)ccc3Cl)CC2)cc1,-4,-2.1,-1.0,0,x,-11%,x
COc1ccc([N+](=O)[O-])cc1NC(=O)COC(=O)Cn1cnc2ccccc2c1=O,12,0.1,-0.2,3,x,x,x
Cc1c(C(=O)N2CCN(S(=O)(=O)c3cc(F)ccc3F)CC2)oc2ccccc12,-16,-0.1,-0.6,-1,x,x,x
Cn1cnnc1SCC(=O)NC1CCCCC1,-10,6.3,-1.3,-5,2.4,-5%,27
NC(=O)Nc1ccc(Cl)cc1,-4,-2.5,1.6,-2,-6.2,3%,-9
CC1CCCC(NC(=O)CCCn2c(=O)[nH]c3cc(Cl)ccc3c2=O)C1C (stereo not given),x,1.0,-3.5,-16,3.1,-7%,13
CCOC(=O)N1CCN(C(=O)c2ccc(N3CCCC3=O)cc2)CC1,x,-3.9,2.0,-5,0.5,-1%,-6
COc1ccccc1OCC(=O)Nc1ccccc1C(=O)NCc1ccco1,-25,-3.5,-1.4,-4,0.2,x,-4
O=C(NCc1ccc(F)cc1)N1CCN(S(=O)(=O)c2ccccc2F)CC1,0,-5.3,-1.2,1,1.5,-4%,5
CC(=O)Nc1ccc(S(=O)(=O)NC2Cc3ccccc3C2)cc1,0,-4.2,0.4,7,8.3,5%,-5
CC1(C)[C@@H](O)CC[C@]2(C)[C@H]3C(=O)C=C4[C@@H]5C[C@@](C)(C(=O)O)CC[C@]5(C)CC[C@@]4(C)[C@]3(C)CC[C@@H]12,x,25&-5.1,-6.5,0,-1.4,28%,5
COc1ccc(Br)cc1C(=O)NC(=S)Nc1ccc(CN2CCOCC2)cc1,1,-1.2,1.3,4,0.0,x,-3
COC(=O)c1sc(NC(=O)COc2cccnc2[N+](=O)[O-])c(C(=O)OC)c1C,-2,1.3,0.3,0,x,3%,x
CN(Cc1nccs1)C(=O)C1CCC(=O)N(CCCc2ccccc2)C1 (stereo not given),x,x,-0.2,6,6.4,7%,13

# Further records follow:
SMILES,ALR inh,LANA-H2A inh,HNF4A DNA FP,B2AR ag,RanGTP-Impb inh,Vif TR-FRET,Calb FLC
N#Cc1cc([N+](=O)[O-])cnc1Nc1ccccc1,-13,-4.1,0.4,-7,-3.0,-3%,7
O=C(COc1ccccc1)NCC(=O)N1CCCC1,-4,-3.7,0.8,5,1.1,-6%,-4
Cc1ccc(NC(=O)c2ncc(Cl)c(Cl)c2Cl)cc1C,-4,-2.7,0.2,-2,-1.7,x,-13
O=C(O)c1cccc(Oc2cccc(Cl)n2)c1,0,0.1,-2.2,-12,-0.9,-2%,2
CC(NC(=O)COc1ccc([N+](=O)[O-])cc1)c1ccccc1 (stereo not given),-2,6.5,0.3,5,u,3%,-4
O=c1[nH]c(CSc2ncccn2)nc2c1cnn2-c1ccccc1,-4,7.5,3.1,-8,-3.2,5%,-4
O=C(/C=C/NCC(=O)c1ccccc1)c1ccc(Br)cc1,4,3.5,3.3,4,0.0,15%,-21
Cc1ccc(S(=O)(=O)NNC(=S)NC(=O)c2ccc([N+](=O)[O-])cc2)cc1,93*,-2.5,-0.4,0,-1.2,2%,31
CN1C2CCC1CC(NS(=O)(=O)c1cccc(C(F)(F)F)c1)C2 (stereo not given),-8,-3.9,-3.2,4,-1.8,x,4
O=S(=O)(NC1=NCCC1)c1cccs1,-18,1.2,-0.9,4,2.8,-12%,-10
CC(Cl)C(=O)c1ccc2c(c1)CCN2C(=O)C1CC1 (stereo not given),42,2.5,3.7,-7,0.6,-1%,-20
CC(=O)N1C(=O)c2cccc3cccc(c23)C(=O)N1C(C)=O,-12,-1.4,x,x,0.3,21%,-11
COc1ccccc1NC(=O)c1cc(S(=O)(=O)N2CCCCCC2)ccc1F,-3,-5.8,-0.4,0,-0.1,x,6
Cc1noc(C)c1COC(=O)[C@@H](NC(=O)c1ccccc1Cl)C(C)C,-3,-0.6,-0.8,-6,-2.0,19%,-1
Cc1ccc(N2CCN(/N=C/c3cccnc3)CC2)cc1,40,1.5,4.5,0,3.1,5%,-2
O=C(Nc1cccc(Cl)c1)c1cc(S(=O)(=O)NCCc2ccc(Cl)cc2)ccc1F,x,-1.3,3.0,6,0.4,x,5
Cc1ccc(C(=O)Nc2cc(C(F)(F)F)ccc2-n2cncn2)o1,-3,-1.3,1.0,3,x,-8%,x
O=C(O)c1cc2c(ccc3ccccc32)oc1=O,-9,-1.4,4.7,-1,-0.2,2%,30
CCOC(=O)C1=C(c2ccccc2)NC(=O)NC1c1cc(OCC)c(O)c([N+](=O)[O-])c1 (stereo not given),42,-11,-1.5,4,0.3,x,38
O=C(NCc1cc(C(F)(F)F)cc(C(F)(F)F)c1)C1CC(c2cccc([N+](=O)[O-])c2)=NO1 (stereo not given),-8,4.2,0.0,7,0.0,-2%,-4
CCN1CCN(Cc2ccc(OCc3ccccc3)cc2)CC1,1,3.7,0.3,11,-5.2,-5%,-2
O=C(OCc1nc2ccccc2s1)c1cc2ccccc2oc1=O,x,2.1,x,x,2.7,13%,-3
O=C(O)Cc1sc(-c2ccccc2)nc1-c1ccccc1,3,1.9,4.0,3,-1.7,-24%,-7
Cc1ccc(CNc2cc(-c3nn4c(C)nnc4s3)ccc2C)s1,-4,-2.7,1.1,-5,-3.7,5%,8
COc1cc2c(cc1OC)CN(C(=O)C1CCN(S(=O)(=O)c3ccccc3F)CC1)CC2,-5,0.6,-0.7,8,1.3,x,1
O=c1c2ccccc2n2c(-c3ccc(F)cc3)nnc2n1Cc1ccccc1,x,3.0,1.7,-7,2.6,u,2
CC(C)c1ccc(/C=c2\sc3nc(-c4ccncc4)nn3c2=O)cc1,87*,-4.5,0.0,12,4.1,1%,-12
CC(C)C[C@H](NC(=O)c1[nH]cnc1C(=O)Nc1ccc(CNC(=O)OC(C)(C)C)cc1)C(=O)OC(C)(C)C,-1,1.5,-5.2,5,3.9,-3%,8
O=c1c(C=NCCCn2ccnc2)c(-c2ccccc2)[nH]n1-c1nc2ccccc2s1,-3,9.1,0.9,-4,4.9,27%&4%,-11
Cc1ccc(NC(=O)C2CCN(S(C)(=O)=O)CC2)cc1C,-8,2.7,-0.2,-2,-4.5,3%,-2
Cc1nc2c3cnn(-c4ccccc4)c3ncn2n1,2,-2.6,-4.8,-13,-3.8,10%,20
